Assay outcomes deposited in PubChem by several laboratories.
Platelet DG rel: platelet dense granule release activity. inhibition, %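 (compounds screened at 7.5 µM in platelet-rich plasma)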. human platelet-rich plasma, SFLLRN dense granule ATP release, luminescence. 300,000 tested, 0.22% active;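 active = mean replicate score, as percent of positive control, at or above 50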
RGS4 pot: potentiators or activators of RGS4. HEK293 M3R/inducible RGS4, carbachol calcium flux Fluo4; active compounds read low. B-score at 10 µM. 310,000 tested, 0.92% active. AID 463111;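 active = B-score of the integrated calcium signal more than 4 SD below the library mean, with starting fluorescence not abnormally high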;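 note: negative B-score means reduced calcium response which marks RGS4 activation or potentiation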
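test system = M3R-expressing HEK293 line, RGS4 induced by doxycycline | probe or stimulus = carbachol at ECmax as muscarinic agonist stimulus | timing = dye loading 30 min 37 °C, buffer rest 30 min RT | signal = calcium dye Fluo4 fluorescence | evaluation = B score from integrated fluorescence ratio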
TRPC6 inh: mouse TRPC6 channel inhibition; B-score at 10 µM; HEK293-TRPC6, membrane potential dye, ACh-evoked depolarization; active compounds read low; 310,000 tested, 1.1% active; Q61143; AID 2553;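 active = B-score under library mean minus 3 SD, initial fluorescence not abnormally high, positive integrated signal ratio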;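 note: B-score derived from integrated fluorescence ratio over the kinetic read; more negative B-score means stronger inhibition of depolarization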
TRPC4 block: inhibitors of mouse TRPC4 channel; Q9QUQ5; HEK293 TRPC4beta/mu-opioid, DAMGO-evoked Fluo4 calcium flux; active compounds read low; B-score at 10 µM; 300,000 tested, 0.39% active; AID 2247;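 active = B-score over 3 SD under the library average, no early fluorescence shift, positive overall ratio signal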
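Signal: kinetic Fluo4 fluorescence imaging of calcium influx. Material: stable TRPC4beta/mu-opioid receptor HEK293 cells. Probe or stimulus: DAMGO in two steps, submaximal then maximal.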
MrgX1 agonist: activates human MrgX1 receptor signaling | Q96LB2 | MrgX1-HEK293 cells, Fluo-4 calcium fluorescence, agonist mode; active compounds read high | B-score at 10 µM | 310,000 tested, 0.44% active | AID 588627;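 active = calcium response B-score plate-corrected fluorescence ratio at least 3 library SD, with starting fluorescence B-score inside 5 SD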
Target sequence (Q96LB2 whole entry, looked up): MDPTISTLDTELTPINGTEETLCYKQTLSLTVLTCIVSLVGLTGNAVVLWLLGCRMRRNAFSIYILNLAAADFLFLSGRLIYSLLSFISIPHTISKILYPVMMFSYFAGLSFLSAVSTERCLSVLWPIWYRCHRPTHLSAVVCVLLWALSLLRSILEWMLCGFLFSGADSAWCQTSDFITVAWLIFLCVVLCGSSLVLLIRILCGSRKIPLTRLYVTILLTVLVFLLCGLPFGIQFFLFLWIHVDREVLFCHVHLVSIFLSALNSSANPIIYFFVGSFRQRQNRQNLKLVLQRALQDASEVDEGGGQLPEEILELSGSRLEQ
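times = overnight plating, then 30 min 37 °C plus 30 min room-temperature dye loading | assay system = stable human MrgX1 HEK293 cell line | input = fifteen thousand cells per well | signal = kinetic calcium dye fluorescence, Fluo-4 NW | dosing = compound delivered in addition one of three | read-out = B-scored fluorescence response ratio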
MrgX1 PAM: human MrgX1 positive allosteric modulation, primary screen; Q96LB2; MrgX1-HEK293, Fluo-4 calcium flux, FDSS; active compounds read high; B-score at 10 µM; 310,000 tested, 0.63% active; AID 588675;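 active = plate-corrected calcium response at least 3 library SD above typical, normal starting fluorescence, not activating the receptor alone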;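 note: compound read alongside a low EC10 to EC30 dose of BAM8-22 agonist; peak minus trough fluorescence over baseline measured at the second addition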
RGS4 block: inhibitors of human RGS4; P49798; HEK293 M3R/RGS4 inducible, Fluo-4 calcium flux; active compounds read high; triggered by carbachol at its EC20; B-score at 10 µM; 310,000 tested, 0.45% active;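 active = B-score, a plate-corrected calcium signal, over three deviations above library mean, with baseline fluorescence within five deviations of library mean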;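 note: RGS4 expression induced by doxycycline in cells with stable M3 receptor; B-score is computed from the integrated fluorescence ratio over baseline after carbachol; higher B-score means a larger calcium signal and so more RGS4 inhibition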
Target sequence (P49798 whole entry, looked up): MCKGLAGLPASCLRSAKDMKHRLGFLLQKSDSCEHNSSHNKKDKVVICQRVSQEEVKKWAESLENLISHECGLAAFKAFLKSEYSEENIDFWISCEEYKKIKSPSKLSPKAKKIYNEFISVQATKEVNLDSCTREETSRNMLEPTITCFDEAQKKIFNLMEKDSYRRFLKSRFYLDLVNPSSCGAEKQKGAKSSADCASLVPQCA
SKKanGAS inh: SKKanGAS growth inhibition; S. pyogenes SKKanGAS, kanamycin growth, BacTiter-Glo, 6 h; inhibition, % at 7.5 µM; 300,000 tested, 1.3% active;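 active = mean replicate score, as percent of positive control median, at least 50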;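 note: strain carries kanamycin resistance gene driven by streptokinase promoter and grows in 40 µg/ml kanamycin; loss of luminescence reflects streptokinase promoter inhibition or plain growth inhibition; 0% = median of DMSO wells and 100% = positive control at its reference dose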
MrgX1 antag: human MrgX1 receptor antagonism, primary screen | 310,000 tested, 1.3% active | MRGX1-HEK293 calcium flux, Fluo-4, BAM8-22 antagonism; active compounds read low | Q96LB2 | B-score at 10 µM;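 active = calcium-response B-score plate-corrected more than 3 library SD below zero, starting fluorescence within 5 deviations, no agonist response on first addition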;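 note: peak minus trough fluorescence over baseline after final BAM8-22 challenge near maximal dose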
TRPC6 activator: activators of mouse TRPC6 channel; Q61143; HEK293-TRPC6 membrane potential dye fluorescence; active compounds read high; B-score at 10 µM; 310,000 tested, 0.13% active; AID 2550;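 active = B-score of the integrated fluorescence ratio above library mean plus 3 SD, and starting fluorescence ratio within library mean plus 5 SD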;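 note: higher score means more depolarization so channel activation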
* marks the source's active call; other numbers are inactive results; i = inactive; . = no result given; & = joins results of further samples.

Abbreviations: A = Platelet DG rel; B = RGS4 pot; C = TRPC6 inh; D = TRPC4 block; E = MrgX1 agonist; F = MrgX1 PAM; G = RGS4 block; H = SKKanGAS inh; I = MrgX1 antag; J = TRPC6 activator
1. C[N+]1(C)C2CC[C@H]1CC(OC(=O)C(CO)c1ccccc1)C2 (stereo partly specified)
  A: .	B: .	C: .	D: .	E: i	F: i	G: .	H: .	I: i	J: .

2. CC1=NOC2(C)Nc3ncnn3C(c3ccccc3)C12 (stereo unspecified)
  A: -2	B: i	C: i	D: i	E: i	F: i	G: i	H: -6	I: i	J: i

3. Cc1nccc2c1[nH]c1ccccc12
  A: -1	B: i	C: i	D: i	E: i	F: i	G: i	H: -1	I: i	J: i

4. COc1ccc2c(c1OC)C(=O)O[C@H]2[C@@H]1c2cc3c(cc2CCN1C)OCO3
  A: .	B: .	C: .	D: .	E: i	F: i	G: .	H: .	I: i	J: .

5. O=c1[nH]c(=O)n(Cc2ccccc2)c(O)c1C=NCCN1CCOCC1
  A: 2	B: i	C: i	D: i	E: i	F: i	G: i	H: -3	I: i	J: i

6. COC(=O)[C@@H](N)CCCN=C(N)N[N+](=O)[O-]
  A: 1	B: i	C: i	D: i	E: i	F: i	G: i	H: -1	I: i	J: i

7. Cc1c(N=Cc2c(O)n(CCc3ccc(F)cc3)c(=O)[nH]c2=O)c(=O)n(-c2ccccc2)n1C
  A: -13	B: i	C: i	D: i	E: i	F: i	G: i	H: 0	I: i	J: i

8. C[N+]1(C)[C@@H]2CC[C@H]1CC(OC(=O)C(CO)c1ccccc1)C2 (stereo partly specified)
  A: -3	B: i	C: -7.1*	D: i	E: i	F: i	G: i	H: -2	I: i	J: i

9. COc1ccc2c(c1OC)C(=O)OC2c1c(O)n(C2CCCCC2)c(=O)[nH]c1=O (stereo unspecified)
  A: 7	B: i	C: i	D: i	E: i	F: i	G: i	H: -1	I: i	J: i

10. C[C@]12CCC(=O)C=C1CC[C@@H]1C2CC[C@]2(C)C(=O)CCC12 (stereo partly specified)
  A: 0	B: i	C: i	D: i	E: i	F: i	G: i	H: -4	I: i	J: i

11. NC(=O)CN1CCCC1=O
  A: -1	B: i	C: i	D: i	E: i	F: i	G: i	H: -7	I: i	J: i

12. CCCCCCn1c(O)c(C=NCCCn2ccnc2)c(=O)[nH]c1=O
  A: 0	B: i	C: i	D: i	E: i	F: i	G: i	H: 3	I: i	J: i

13. Cn1c(O)c(C=NCCCNC2CCCCC2)c(=O)n(C)c1=O
  A: -2	B: i	C: i	D: i	E: i	F: i	G: i	H: -9	I: i	J: i

14. O=C(O)CC[N+](=O)[O-]
  A: 0	B: i	C: i	D: i	E: i	F: i	G: i	H: -1	I: i	J: i

15. COc1ccc2c(c1)[C@]13CCCCC1C(C2)N(C)CC3 (stereo partly specified)
  A: 1	B: i	C: i	D: i	E: i	F: i	G: i	H: 2	I: i	J: i

16. CC[C@@]1(O)C(=O)OCc2c1cc1n(c2=O)Cc2cc3c(NC(=O)CN)cccc3nc2-1
  A: -8	B: i	C: i	D: i	E: i	F: i	G: i	H: 14	I: i	J: i

17. Cn1cnc(CCN)c1
  A: 3	B: i	C: i	D: i	E: i	F: i	G: i	H: -1	I: i	J: i

18. COC(=O)C(O)(c1c[nH]c2ccccc12)C(F)(F)F (stereo unspecified)
  A: -3	B: i	C: i	D: i	E: i	F: i	G: i	H: 3	I: i	J: i

19. CC(=O)C1CCC2C3CCC4CC(O)CCC4(C)C3CCC12C (stereo unspecified)
  A: -1	B: i	C: i	D: i	E: i	F: i	G: i	H: 8	I: i	J: i

20. CC[C@@]1(O)C(=O)OCc2c1cc1n(c2=O)Cc2cc3ccccc3nc2-1
  A: -1	B: i	C: i	D: i	E: i	F: i	G: i	H: -3	I: i	J: i

21. OC1(c2ccc(F)cc2)CCNC1 (stereo unspecified)
  A: -1	B: i	C: i	D: i	E: i	F: i	G: i	H: -2	I: i	J: i

22. c1ccc2c(N3CCNCC3)cccc2c1
  A: 0	B: i	C: i	D: i	E: i	F: i	G: i	H: -2	I: i	J: i

23. CCCC[N+]1(C)[C@@H]2CC(OC(=O)[C@H](CO)c3ccccc3)C[C@H]1[C@@H]1O[C@@H]12 (stereo partly specified)
  A: -2	B: i	C: i	D: i	E: i	F: i	G: i	H: -5	I: i	J: i

24. O=c1[nH]c2ccccc2n1C1CCN(CCCC(c2ccc(F)cc2)c2ccc(F)cc2)CC1
  A: 0	B: i	C: i	D: i	E: i	F: i	G: i	H: 8	I: i	J: i

25. NC(=O)c1cc(N2CC2)c([N+](=O)[O-])cc1[N+](=O)[O-]
  A: -1	B: i	C: i	D: i	E: i	F: i	G: i	H: -2	I: i	J: i

Reformatted in markdown: part of the list above
| item | mol | Platelet DG rel | RGS4 pot | TRPC6 inh | TRPC4 block | MrgX1 agonist | MrgX1 PAM | RGS4 block | SKKanGAS inh | MrgX1 antag | TRPC6 activator |
| --- | --- | --- | --- | --- | --- | --- | --- | --- | --- | --- | --- |
| 1 | C[N+]1(C)C2CC[C@H]1CC(OC(=O)C(CO)c1ccccc1)C2 (stereo partly specified) | . | . | . | . | i | i | . | . | i | . |
| 2 | CC1=NOC2(C)Nc3ncnn3C(c3ccccc3)C12 (stereo unspecified) | -2 | i | i | i | i | i | i | -6 | i | i |
| 3 | Cc1nccc2c1[nH]c1ccccc12 | -1 | i | i | i | i | i | i | -1 | i | i |
| 4 | COc1ccc2c(c1OC)C(=O)O[C@H]2[C@@H]1c2cc3c(cc2CCN1C)OCO3 | . | . | . | . | i | i | . | . | i | . |
| 5 | O=c1[nH]c(=O)n(Cc2ccccc2)c(O)c1C=NCCN1CCOCC1 | 2 | i | i | i | i | i | i | -3 | i | i |
| 6 | COC(=O)[C@@H](N)CCCN=C(N)N[N+](=O)[O-] | 1 | i | i | i | i | i | i | -1 | i | i |
| 7 | Cc1c(N=Cc2c(O)n(CCc3ccc(F)cc3)c(=O)[nH]c2=O)c(=O)n(-c2ccccc2)n1C | -13 | i | i | i | i | i | i | 0 | i | i |
| 8 | C[N+]1(C)[C@@H]2CC[C@H]1CC(OC(=O)C(CO)c1ccccc1)C2 (stereo partly specified) | -3 | i | -7.1* | i | i | i | i | -2 | i | i |
| 9 | COc1ccc2c(c1OC)C(=O)OC2c1c(O)n(C2CCCCC2)c(=O)[nH]c1=O (stereo unspecified) | 7 | i | i | i | i | i | i | -1 | i | i |
| 10 | C[C@]12CCC(=O)C=C1CC[C@@H]1C2CC[C@]2(C)C(=O)CCC12 (stereo partly specified) | 0 | i | i | i | i | i | i | -4 | i | i |
| 11 | NC(=O)CN1CCCC1=O | -1 | i | i | i | i | i | i | -7 | i | i |
| 12 | CCCCCCn1c(O)c(C=NCCCn2ccnc2)c(=O)[nH]c1=O | 0 | i | i | i | i | i | i | 3 | i | i |
| 13 | Cn1c(O)c(C=NCCCNC2CCCCC2)c(=O)n(C)c1=O | -2 | i | i | i | i | i | i | -9 | i | i |

Next section
Abbreviations: A = Platelet DG rel; B = RGS4 pot; C = TRPC6 inh; D = TRPC4 block; E = MrgX1 agonist; F = MrgX1 PAM; G = RGS4 block; H = SKKanGAS inh; I = MrgX1 antag; J = TRPC6 activator
26. COc1cc(C(=O)OC2C[C@H]3CC[C@@H](C2)N3C)ccc1O (stereo partly specified)
  A: -1	B: i	C: i	D: i	E: i	F: i	G: i	H: 1	I: i	J: i

27. O=c1[nH]c(=O)n(C2CCCCC2)c(O)c1C=NCCCn1ccnc1
  A: 6	B: i	C: i	D: i	E: i	F: i	G: i	H: -1	I: i	J: i

28. CCCCOCCCn1c(N)c(C(=O)OCCOC)c2nc3ccccc3nc21
  A: 13	B: i	C: i	D: i	E: i	F: i	G: i	H: -6	I: i	J: i

29. OC(c1ccc(F)cc1)C(c1ccccc1)N1CCOCC1 (stereo unspecified)
  A: 8	B: i	C: i	D: i	E: i	F: i	G: i	H: -2	I: i	J: i

30. C[C@]12CC[C@H](OS(=O)(=O)O)CC1=CC[C@@H]1[C@@H]2CC[C@]2(C)C(=O)CC[C@@H]12
  A: -1&2	B: i	C: i	D: i	E: i	F: i	G: i	H: -4&2	I: i	J: i

31. COC(=O)C(c1ccccc1)N1CCCCCC1 (stereo unspecified)
  A: 8	B: i	C: i	D: i	E: i	F: i	G: i	H: -3	I: i	J: i

32. CCOC(=O)[C@@]1(C#N)[C@@H]2C=CC(C(N)=O)=CN2[C@@H](C(N)=O)[C@@H]1c1cccc(Cl)c1
  A: 2	B: i	C: i	D: i	E: i	F: i	G: i	H: 5	I: i	J: i

33. CNC(=O)N(C)c1nnc(C(C)(C)C)s1
  A: 0	B: i	C: i	D: i	E: i	F: i	G: i	H: -8	I: i	J: i

34. COc1ccc(CNC(=O)/C=C/c2ccc3[nH]cc(CCN(C)C)c3c2)cc1
  A: -2	B: i	C: i	D: i	E: i	F: i	G: i	H: 1	I: i	J: i

35. C[N+]1(C)C2CCC1CC(OC(=O)C(CO)c1ccccc1)C2 (stereo unspecified)
  A: 6	B: -8.6*	C: -8.5*	D: i	E: i	F: i	G: i	H: 0	I: i	J: i

36. CN1CC[C@@]23CCCC[C@@H]2[C@@H]1Cc1ccc(O)cc13
  A: -4	B: i	C: i	D: i	E: i	F: i	G: i	H: -1	I: i	J: i

37. COCC(C)OC(=O)c1c(N)n(Cc2ccco2)c2nc3ccccc3nc12 (stereo unspecified)
  A: -15	B: i	C: i	D: i	E: i	F: i	G: i	H: 6	I: i	J: i

38. O=c1[nH]c(=O)n(-c2cccc(Cl)c2)c(O)c1C=NCCN1CCCCC1
  A: -13	B: i	C: i	D: i	E: i	F: i	G: i	H: -7	I: i	J: i

39. O=c1[nH]c(=O)n(Cc2ccccc2)c(O)c1C=NCCN1CCNCC1
  A: 2	B: i	C: i	D: i	E: i	F: i	G: i	H: -6	I: i	J: i

40. OC1CCCCC1N1CCC(c2ccccc2)CC1 (stereo unspecified)
  A: -2	B: i	C: i	D: i	E: i	F: i	G: i	H: 3	I: i	J: i

41. O=c1[nH]c(=O)n(Cc2ccco2)c(O)c1C=NCCCn1ccnc1
  A: -4	B: i	C: i	D: i	E: i	F: i	G: i	H: 1	I: i	J: i

42. CC(C)[N+](C)(CCC(C(N)=O)(c1ccccc1)c1ccccc1)C(C)C
  A: 2	B: i	C: -6.6*	D: i	E: i	F: i	G: i	H: -4	I: i	J: i

These rows are one share of the data; count on the stated rates, not on these rows.
